Source: PubChem
Rango release inh: inhibition of RanGTP-driven Rango-importin beta dissociation | O95149+P62826 | Potency, µM (highest dose often 46.1 µM), inactives show at the highest dose activity change, negative = inhibition | hit rate 0.071% among 340,000 | AID 540253 | Biochemical FRET Rango-importin beta, RanGTP-induced dissociation; active means falling FRET ratio curve, often poorly fitted, with flat reads before Ran was added; inconclusive means other falling curves, or compound fluorescence or quenching; inactive means flat or rising ratio curve;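 note: potency is the fitted concentration of half-maximal effect; % of control where 0% means no effect; nearly all actives have a fitted effect of over 45% in size; -100% = wells without RanGTP and RCC1; the record marks most hits as doubtful in a second field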
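Two FRET readings bracket the reaction: one 5 min after compound meets Rango–importin beta, another 45 min after RanGTP-RCC1 (0.6 uM Ran, 0.2 uM RCC1, 2 mM GTP) is added. Only the second defines inhibition.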
miR-21 reporter: raises the signal of a miR-21 reporter; Potency, µM (highest dose often 38.3 µM), for the others: at the highest dose reporter change, positive = more light; HeLa miR-21 FLuc reporter, luciferase, 48 h; 340,000 tested, under 10 active; active = well fitted rising curve with a large enough effect; inconclusive = small, poorly fitted or top-dose-only effect; inactive = no such curve, though single readings can be large or run the other way;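 note: % of control where 0% means no effect; miR-21 action dims this reporter so a rising signal means less miR-21 action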
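Using DMEM plus 10% FBS, HeLa miR-21-FLuc cells are incubated with test compounds (final up to about 40uM) for 48 hours; firefly luciferase signal is then imaged following reagent-mediated lysis.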
GLA inh pH 4.5: inhibitors of human alpha-galactosidase A at pH 4.5; purified enzyme, 4-MU-alpha-Gal fluorescence, pH 4.5; activity change, negative = inhibition, % at 105 µM; P06280; AID 1467; 230,000 tested, under 10 active; inconclusive = small, poorly fitted or top-dose-only inhibition, or a rising curve; inactive = flat fitted curve, though single readings scatter; no compound was filed as active;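 note: 0% = full activity with enzyme and -100% = basal without enzyme; dose as in the result columns while the protocol names 77 µM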
Target sequence (P06280 whole entry, looked up): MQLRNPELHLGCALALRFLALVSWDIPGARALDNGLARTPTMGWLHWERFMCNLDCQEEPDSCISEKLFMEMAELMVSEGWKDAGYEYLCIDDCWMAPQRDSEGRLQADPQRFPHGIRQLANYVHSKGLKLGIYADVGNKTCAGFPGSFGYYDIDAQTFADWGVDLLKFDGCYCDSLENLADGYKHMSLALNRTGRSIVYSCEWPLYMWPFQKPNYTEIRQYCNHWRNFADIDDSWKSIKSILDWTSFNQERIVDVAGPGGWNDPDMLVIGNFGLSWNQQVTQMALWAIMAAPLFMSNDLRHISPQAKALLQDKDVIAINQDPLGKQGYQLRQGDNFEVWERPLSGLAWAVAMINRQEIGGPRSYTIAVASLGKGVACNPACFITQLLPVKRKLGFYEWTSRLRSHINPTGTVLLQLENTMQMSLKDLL
Rango-impB inh: inhibitors of Rango-importin beta complex formation | Potency, µM (series often up to 92.2 µM), for the others: top-dose inhibition of complex formation | hit rate 0.031% among 340,000 | Rango CFP/YFP FRET sensor + importin beta, 45 min; active = rising FRET ratio curve, often small or poorly fitted; inconclusive = mostly compound fluorescence or quenching in the first reads; inactive = flat curves in all reads;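 note: potency is the fitted concentration of half-maximal effect; 0% = DMSO wells and 100% = buffer wells lacking importin beta; nearly all actives have a fitted effect of over 15% in size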
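Inhibition scored from the CFP 486 nm/YFP 530 nm FRET ratio 45 min after adding 0.125 microM importin beta to 50 nM Rango biosensor preincubated 5 min with compound (room temperature, PBS with DTT, Tween-20, BSA). No-importin wells as positive control.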
* hit, by the source's call; & = joins results of further samples. These rows are one share of the data, so the mix of outcomes need not match the whole.

CC(=O)OC(C[N+]1(C)CCCCCC1)c1ccccc1 (stereo unspecified) was read as Rango release inh 7%, miR-21 reporter 6% and Rango-impB inh -0.2%.
Screening COc1cccc2sc3ccc(C#CC4(O)CCCCC4)cc3c(=O)c12 returned Rango release inh inconclusive, miR-21 reporter -28% and Rango-impB inh inconclusive.
For COc1ccc(NS(=O)(=O)c2cccc(C(=O)N/N=C/c3ccccn3)c2)cc1 the results were Rango release inh 6%, miR-21 reporter -30%, GLA inh pH 4.5 4 and Rango-impB inh -2.8%.
Screening Cc1nn2c(nc1=O)SCC(c1ccccc1)=N2 returned Rango release inh 0%, miR-21 reporter -38%, GLA inh pH 4.5 -5 and Rango-impB inh -1.4%.
CCOC(=O)c1[nH]nc(-c2c(O)cc(C)cc2O)c1-c1csc(C)n1 was read as Rango release inh 13%, miR-21 reporter -6%, GLA inh pH 4.5 6 and Rango-impB inh -0.8%.
For CC[C@@H]1CC=C[C@H]2[C@H]1C(=O)N(Cc1ccccc1)[C@H]2c1ccoc1 the results were Rango release inh -17%, miR-21 reporter inconclusive, GLA inh pH 4.5 -1 and Rango-impB inh 2.2%.
Screening O=C(COC(=O)C1CC1)NCCc1ccccc1 returned Rango release inh 7% and Rango-impB inh -0.2%.
COc1ccccc1C(=O)NNC(=O)c1ccc(F)cc1 was read as Rango release inh -7%, miR-21 reporter -48%, GLA inh pH 4.5 1 and Rango-impB inh inconclusive.
Screening CCC(C(=O)Nc1cc(C)on1)c1ccccc1 (stereo unspecified) returned Rango release inh 14%, miR-21 reporter 0%, GLA inh pH 4.5 -3 and Rango-impB inh -0.7%.
`COc1ccc(OC)c(-c2cc(C(=O)Nc3c(C)n(C)n(-c4ccccc4)c3=O)no2)c1` gave Rango release inh 2%, miR-21 reporter -18%, GLA inh pH 4.5 7 and Rango-impB inh -2.0%.
`CC1=C(/C=C/C(=O)O)C(C)(C)CCC1` gave Rango release inh 1%, miR-21 reporter 0%, GLA inh pH 4.5 -2 and Rango-impB inh -0.2%.
For CC1CCN(S(=O)(=O)c2ccccc2[N+](=O)[O-])CC1 the results were Rango release inh -4%, miR-21 reporter 0%, GLA inh pH 4.5 -6 and Rango-impB inh -3.1%.
`CCOc1ccc(S(=O)(=O)N2CCN(Cc3ccc4c(c3)OCO4)CC2)cc1OCC` gave Rango release inh 1%, miR-21 reporter 0% and Rango-impB inh 0.0%.
For CC1(C)C(=O)OC(c2ccco2)C(C)(C)C1=O (stereo unspecified) the results were Rango release inh 1%, miR-21 reporter 0%, GLA inh pH 4.5 -1 and Rango-impB inh 0.7%.
`O=C(O)/C=C/C(=O)NNC(=O)c1cc(-c2ccccc2)n[nH]1` gave Rango release inh 25%, miR-21 reporter -1%, GLA inh pH 4.5 1 and Rango-impB inh -1.0%.
For COc1ccc2cc3cc(C(=O)NCCCN4CCC(C)CC4)oc3nc2c1 the results were Rango release inh 4%, miR-21 reporter -17% and Rango-impB inh -2.7%.
For Cn1c(=O)c2c(ncn2CC(=O)N/N=C/C(Br)=C/c2ccccc2)n(C)c1=O the results were Rango release inh 1%, miR-21 reporter -14%, GLA inh pH 4.5 -3 and Rango-impB inh 5.4%.
Screening CCOc1ccc(-n2c(=O)c3sccc3n(CC(=O)NCC3CCCO3)c2=O)cc1 (stereo unspecified) returned Rango release inh 0%, miR-21 reporter 0% and Rango-impB inh 0.0%.
CCN(Cc1cc(=O)[nH]c2ccccc12)C(=O)c1ccc(C)cc1 was read as Rango release inh -3%, miR-21 reporter 0%, GLA inh pH 4.5 -3 and Rango-impB inh -1.3%.
COc1cccc(CN(C)C(=O)C(CCSC)NS(=O)(=O)c2ccc3c(c2)OCCO3)c1OC (stereo unspecified) was read as Rango release inh 11% and Rango-impB inh -2.1%.
`CS(=O)(=O)Cc1ccc(C(=O)NC2CCSc3ccccc32)cc1` (stereo unspecified) gave Rango release inh -20%, miR-21 reporter -2% and Rango-impB inh -1.2%.
For O=C(c1cnc(N2CCN(c3ncccn3)CC2)c2ccccc12)N1CCN(c2ccccn2)CC1 the results were Rango release inh 1%, miR-21 reporter inconclusive, GLA inh pH 4.5 2 and Rango-impB inh 1.2%.
For CO/N=C/CC(=O)c1ccc([N+](=O)[O-])c(CS(=O)(=O)c2ccc(Cl)cc2)c1 the results were Rango release inh 9%, miR-21 reporter 1% and Rango-impB inh -0.8%.
For c1ccc(C2COC(c3cccs3)=N2)cc1 (stereo unspecified) the results were Rango release inh -6%, miR-21 reporter -22%, GLA inh pH 4.5 6 and Rango-impB inh 2.3%.
Cn1c(Cn2c(=O)sc3ccccc32)nnc1SCC(=O)NCc1ccc2c(c1)OCO2 was read as Rango release inh 8%, miR-21 reporter -3%, GLA inh pH 4.5 -4 and Rango-impB inh 0.2%.
Screening Cc1c(NC(=O)C(C)Sc2nc(N)cc(=O)[nH]2)c(=O)n(-c2ccccc2)n1C (stereo unspecified) returned Rango release inh -25% and Rango-impB inh -0.1%.
Screening COc1ccc(CN2CCC(=O)N(CCO)CC2)cc1OC returned Rango release inh 2%, miR-21 reporter 0% and Rango-impB inh 0.4%.
C=CCNc1nnc(Cc2ccc(F)cc2)c(=O)[nH]1 was read as Rango release inh 14%, miR-21 reporter 0% and Rango-impB inh 0.8%.
For CC(C)c1nc2cc(C(=O)NC(C)c3cnn(C)c3)ccc2o1 (stereo unspecified) the results were Rango release inh 12%, miR-21 reporter -13% and Rango-impB inh 3.9%.
For C=CCNC(=S)/N=c1/ccccn1C the results were Rango release inh 2%, miR-21 reporter -3%, GLA inh pH 4.5 -8 and Rango-impB inh 0.6%.
`CS(=O)(=O)N(Cc1ccc(C(=O)NCCSCc2ccco2)cc1)c1ccccc1` gave Rango release inh -6%, miR-21 reporter 6%, GLA inh pH 4.5 -7 and Rango-impB inh -0.5%.
For O=C(N/N=C/c1cccc2ccccc12)c1cccc(F)c1 the results were Rango release inh -13%, miR-21 reporter -36% and Rango-impB inh -1.5%.
`Cc1sc2nc(SCC(=O)C(C)(C)C)n(Cc3ccco3)c(=O)c2c1C` gave Rango release inh 9%, miR-21 reporter -1%, GLA inh pH 4.5 3 and Rango-impB inh -0.5%.
COc1ccc(C(=O)N2CCCN(C)CC2)cc1S(=O)(=O)N1CCCc2ccccc21 was read as Rango release inh -15%, miR-21 reporter -21%, GLA inh pH 4.5 5 and Rango-impB inh 6.3%.
Cc1ccc(C(=O)OCC(=O)NNC(=O)c2ccccc2)c(O)c1 was read as Rango release inh 5%, miR-21 reporter -11% and Rango-impB inh -1.9%.
`COc1ccc(CCNC(=O)C(CC(C)C)NC(N)=O)cc1` (stereo unspecified) gave Rango release inh -3%, miR-21 reporter 0%, GLA inh pH 4.5 8 and Rango-impB inh 3.1%.
`COc1cccc(-c2cc(C(=O)Nc3cc(C)nn3-c3ccccc3)no2)c1` gave Rango release inh 5%, miR-21 reporter -2%&4%, GLA inh pH 4.5 -1 and Rango-impB inh 0.2%.
For O=C(Cn1[nH]c(=O)c2ccccc2c1=O)Nc1cccc(S(=O)(=O)N2CCCCCC2)c1 the results were Rango release inh 2%, miR-21 reporter -2%, GLA inh pH 4.5 -16 and Rango-impB inh -1.2%.
Screening COc1cccc(C2=CC(c3ccccc3)n3ncnc3N2)c1 (stereo unspecified) returned miR-21 reporter -1% and GLA inh pH 4.5 inconclusive.
Cc1nc2ccc(Cl)cc2c(-c2ccccc2Cl)c1CC(=O)O was read as Rango release inh -7%, miR-21 reporter -7%, GLA inh pH 4.5 7 and Rango-impB inh 0.4%.

7 records drawn at random from the list so far, as already listed:
Cc1ccc(C(=O)OCC(=O)NNC(=O)c2ccccc2)c(O)c1 was read as Rango release inh 5%, miR-21 reporter -11% and Rango-impB inh -1.9%.
`COc1ccc(CCNC(=O)C(CC(C)C)NC(N)=O)cc1` (stereo unspecified) gave Rango release inh -3%, miR-21 reporter 0%, GLA inh pH 4.5 8 and Rango-impB inh 3.1%.
`CS(=O)(=O)N(Cc1ccc(C(=O)NCCSCc2ccco2)cc1)c1ccccc1` gave Rango release inh -6%, miR-21 reporter 6%, GLA inh pH 4.5 -7 and Rango-impB inh -0.5%.
Cc1nc2ccc(Cl)cc2c(-c2ccccc2Cl)c1CC(=O)O was read as Rango release inh -7%, miR-21 reporter -7%, GLA inh pH 4.5 7 and Rango-impB inh 0.4%.
`COc1cccc(-c2cc(C(=O)Nc3cc(C)nn3-c3ccccc3)no2)c1` gave Rango release inh 5%, miR-21 reporter -2%&4%, GLA inh pH 4.5 -1 and Rango-impB inh 0.2%.
For O=C(N/N=C/c1cccc2ccccc12)c1cccc(F)c1 the results were Rango release inh -13%, miR-21 reporter -36% and Rango-impB inh -1.5%.
For O=C(Cn1[nH]c(=O)c2ccccc2c1=O)Nc1cccc(S(=O)(=O)N2CCCCCC2)c1 the results were Rango release inh 2%, miR-21 reporter -2%, GLA inh pH 4.5 -16 and Rango-impB inh -1.2%.

Following part:
`O=Nc1ccc(NOC(=O)c2ccccc2)cc1` gave Rango release inh 11%, miR-21 reporter 1%, GLA inh pH 4.5 10 and Rango-impB inh 0.0%.
Screening O=S(=O)(c1ccc(N2CC=C(c3ccccc3)CC2)nc1)N1CCCC1 returned Rango release inh 0%, miR-21 reporter 4%, GLA inh pH 4.5 1 and Rango-impB inh -0.4%.
Screening CC(C)CN(C(=O)c1cc(Cl)nc2ccccc12)C1CCS(=O)(=O)C1 (stereo unspecified) returned Rango release inh -9% and Rango-impB inh -1.8%.
O=C(OCC(=O)N1CCCc2ccccc21)C1CCN(S(=O)(=O)c2cccs2)CC1 was read as Rango release inh -5%, miR-21 reporter 3%, GLA inh pH 4.5 -25 and Rango-impB inh -4.2%.
For N/C(=N\OC(=O)c1cccc(Br)c1)c1ccc([N+](=O)[O-])cc1 the results were Rango release inh 7%, miR-21 reporter -9% and Rango-impB inh 0.9%.
For C/C=C/C(=O)Nc1nnc(C(C)C)s1 the results were Rango release inh 17%, miR-21 reporter -2%, GLA inh pH 4.5 -4 and Rango-impB inh 1.1%.
For Cc1ccc(CNC(=O)[C@H](C)NC(=O)C2CCN(C(=O)[C@@H](N)CC(C)C)CC2)cc1 the results were Rango release inh 16%, miR-21 reporter 0% and Rango-impB inh -1.8%.
O=C(CSC1=NCCS1)Nc1cccc(F)c1 was read as Rango release inh -19%, miR-21 reporter 2%, GLA inh pH 4.5 4 and Rango-impB inh 2.4%.
Screening O=C(O)c1c(F)c(F)c(F)c(F)c1-c1ccc(Cl)cc1 returned Rango release inh -11%, miR-21 reporter 6%, GLA inh pH 4.5 -1 and Rango-impB inh -0.2%.
For Cn1c(CNC(=O)C2CCCCC2)cc2cc(Cl)ccc21 the results were Rango release inh -7%, miR-21 reporter -2% and Rango-impB inh 5.3%.
`O=C(N/N=C/c1cc([N+](=O)[O-])ccc1O)C1CC1` gave Rango release inh 6%, miR-21 reporter 6%, GLA inh pH 4.5 -6 and Rango-impB inh -0.7%.
COC(C(=O)N/N=C/c1ccc(OCC(=O)N2CCOCC2)cc1)c1ccccc1 (stereo unspecified) was read as Rango release inh -19%, miR-21 reporter -7% and Rango-impB inh 2.9%.
`CCOc1ccc(OCC)c(NC(=O)C2CCN(S(=O)(=O)c3cccnc3)CC2)c1` gave Rango release inh 23%, miR-21 reporter -5%, GLA inh pH 4.5 9 and Rango-impB inh 1.5%.
Screening CCCn1c(N)c(N(CCOC)C(=O)CCC2CCCCC2)c(=O)[nH]c1=O returned Rango release inh -7% and Rango-impB inh inconclusive.
O=C(N/N=C/c1ccccn1)c1cccs1 was read as Rango release inh 16%, miR-21 reporter -41%, GLA inh pH 4.5 8 and Rango-impB inh -0.4%.
`CCN(CC)C(=O)Cn1cc(SCC(=O)NCc2ccco2)c2ccccc21` gave Rango release inh -1%, miR-21 reporter 4%, GLA inh pH 4.5 -2 and Rango-impB inh -0.2%.
Screening Cc1cc(-c2ccc(C(C)C)c(S(=O)(=O)NCCN3CCC(C)CC3)c2)on1 returned Rango release inh inconclusive, miR-21 reporter -9% and Rango-impB inh 0.8%.
COc1cc(-c2nc(S(=O)(=O)c3ccccc3)c(N3CCOCC3)o2)cc(OC)c1OC was read as Rango release inh -16%, miR-21 reporter 0%, GLA inh pH 4.5 -5 and Rango-impB inh -1.3%.
